Screening data as filed in PubChem.
UCH37 DUB inh = human UCH37 deubiquitinating enzyme inhibition. Q9Y5K5. purified proteasome/UCH37, Ub-AMC cleavage fluorescence. inhibition, % (concentration not given with the values). AID 588478. 0.33% of 330,000 active;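 active means mean of two replicates above 20%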;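 further: 0% = compound-free wells with enzyme and 100% = wells lacking proteasome; stock transfer was 100 nL into about 20 µL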
Target sequence (Q9Y5K5 whole entry, looked up): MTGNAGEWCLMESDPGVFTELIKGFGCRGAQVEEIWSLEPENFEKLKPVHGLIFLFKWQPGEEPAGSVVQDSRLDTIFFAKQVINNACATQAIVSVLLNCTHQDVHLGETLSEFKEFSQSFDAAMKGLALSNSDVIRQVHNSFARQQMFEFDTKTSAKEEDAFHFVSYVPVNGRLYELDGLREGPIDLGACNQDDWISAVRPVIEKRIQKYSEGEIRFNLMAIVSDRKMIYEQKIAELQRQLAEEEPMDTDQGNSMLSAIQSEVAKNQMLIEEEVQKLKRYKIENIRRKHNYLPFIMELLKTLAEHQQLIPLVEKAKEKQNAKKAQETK
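Material: Human UCH37 enzyme supplied as purified proteasome complex | Schedule: 30 min compound-proteasome preincubation then 25 min substrate reaction, room temperature | Detection: AMC fluorescence from Ub-AMC cleavage, excitation 355 nm, emission 460 nm | Benchmarks: Wells without proteasome as full block, compound-free enzyme plus substrate as uninhibited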
Beta apoptosis = beta cell apoptosis inhibition; INS-1E cytokine-induced death, ATP luminescence, 48 h; percent of positive-control rescue, neutral wells zero; protection from apoptosis, % (test concentration not listed); 0.8% of 300,000 active;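 active means all replicates at 75% or more, or half of them and the mean; inconclusive means half reach 75% but not the mean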;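 further: 0% = cytokine-treated negative control wells and 100% = positive control rescue; higher means more ATP so stronger rescue from cytokine killing; wells of about 40 µL received 100 nL stock; the first replicate is given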
LANA-H2A inh = blocks KSHV LANA binding to histone H2A/H2B. AID 2629. cell-free LANA-H2A/H2B peptide, fluorescence polarization. Q9QR71. 0.6% of 320,000 active. inhibition, % (concentration not given with the values); in the data active means inhibition mostly above about 10%, no sharp cut-off; inactive means mostly below about 6.7%;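 further: stock transfer was 7.5 nL into about 10 µL; 0% = median of vehicle wells and 100% = median of positive control wells; one replicate is shown; the record names a cut of 25% in any replicate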
B2AR ag = agonists of human beta-2 adrenergic receptor inducing internalization; 0.43% of 340,000 active; Am2.2-beta2AR cells, FAP receptor internalization, flow cytometry; reference of the scale not given here; P07550; response, % (concentration not given with the values);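 active means response above a set limit, near 3 SD of response in nonfluorescent compounds, cut at about 42% in these data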;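 further: stock transfer was 100 nL into about 11 µL; a reference agonist was the positive control; negative values mostly stem from fluorescent compounds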
Target sequence (P07550 whole entry, looked up): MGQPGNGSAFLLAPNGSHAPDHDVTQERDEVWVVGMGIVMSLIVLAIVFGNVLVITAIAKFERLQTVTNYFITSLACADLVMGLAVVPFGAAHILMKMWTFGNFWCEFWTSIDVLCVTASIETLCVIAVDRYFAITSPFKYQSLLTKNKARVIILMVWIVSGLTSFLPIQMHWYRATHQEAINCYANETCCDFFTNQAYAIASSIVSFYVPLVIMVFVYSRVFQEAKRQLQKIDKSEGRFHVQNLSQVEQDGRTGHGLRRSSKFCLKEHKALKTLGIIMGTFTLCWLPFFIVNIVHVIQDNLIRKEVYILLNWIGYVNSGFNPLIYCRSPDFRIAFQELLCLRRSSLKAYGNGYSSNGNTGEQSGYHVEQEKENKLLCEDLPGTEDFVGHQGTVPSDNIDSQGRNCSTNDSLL
T cruzi repl = blocks replication of Trypanosoma cruzi | AID 1885 | T. cruzi beta-gal in NIH3T3, luminescence, 90 h | inhibition, % (test concentration not listed) | 1.4% of 300,000 active;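 active means mean inhibition across valid replicates above about 55%, limit read from the data; inconclusive means mean below that limit but half or more replicates reach it; inactive means mean below it, under half of replicates reach it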;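 further: signal also drops with host cell toxicity which is not excluded here; 0% = plate median of DMSO wells and 100% = zero luminescence signal; higher percent means less beta-gal luminescence so fewer parasites; stock transfer was 50 nL into about 50 µL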
Calb FLC = affects C. albicans growth with fluconazole; C. albicans CaCi-2 (fluconazole-resistant clinical isolate) + fluconazole, Alamar Blue growth, 48 h; growth inhibition, % (concentration not given with the values); 0.57% of 300,000 active;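 active means most replicates above 75%; inconclusive means exactly half above 75%; inactive means most below 75%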;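 further: all wells also contain fluconazole at 8 µg/ml as a sub-toxic cotreatment; 0% = median of DMSO wells and 100% = median of geldanamycin control wells; wells of about 8 µL received 7.5 nL stock; the first replicate is given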
A1 inh = inhibitors of the anti-apoptotic protein A1, read as caspase activation; MEF A1-2A-BIM cells, Caspase-Glo 3/7 luminescence, 3 h; percent of clofoctol response, vehicle zero; caspase activation, % (test concentration not listed); 0.066% of 330,000 active;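 active means over half of replicate activation scores above 10%, or exactly half above 10 with the replicate mean above 10; inconclusive means replicate mean below 10 yet half the replicates above 10; inactive means over half of replicates below 10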;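 further: wells of about 30 µL received 50 nL stock; many hits fall short of the cut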
RanGTP-Impb inh = inhibitors of RanGTP-importin-beta interaction, primary screen, biochemical, FRET, CFP-Ran, YFP-importin-beta, homogeneous; AID 2216; 1.1% of 300,000 active; inhibition, % (concentration not given with the values); cell-free CFP-Ran/YFP-importin-beta FRET ratio;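 active means most replicates above 15%; inconclusive means exactly half above 15%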;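 further: 0% = DMSO wells and 100% = Ran loaded with GDP instead of GTP; wells of about 40 µL received 100 nL stock; the first replicate is given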
* = called active by the depositor; ? = inconclusive; / = not tested or not shown.

SMILES	UCH37 DUB inh	Beta apoptosis	LANA-H2A inh	B2AR ag	T cruzi repl	Calb FLC	A1 inh	RanGTP-Impb inh
CCOc1cc(C(=O)Nc2nnc(S(=O)(=O)N3CCOCC3)s2)cc(OCC)c1OCC	2.0	0	1.4	-1	2	4	0.8	0.8
CCCc1nc2nc(C)c(NS(=O)(=O)c3ccc(CC(C)C)cc3)c(=O)n2[nH]1	1.1	-3	-0.3	13	-8	0	0.2	3.6
C/C(=N\OCC(=O)Nc1ccc(OC(F)(F)F)cc1)c1ccc2c(c1)OCCO2	/	-2	-3.2	5	-10	3	0.5	-4.9
O=C(/C=C/c1cccs1)N1CCN(c2ccccc2)CC1	2.7	-4	1.5	3	2	-2	0.2	-0.1
COc1cc(NC(=O)C2CCCN(S(=O)(=O)c3ccc4c(c3)oc(=O)n4C)C2)cc(OC)c1 (configuration not stated)	8.3	-3	-2.0	-18	4	6	-0.4	0.7
COc1ccc(CCNC(=O)Oc2ccccc2)cc1OC	3.2	-5	-4.1	-6	-12	-16	-0.2	2.7
CCOc1ccccc1NS(=O)(=O)c1ccc(-n2cccn2)cc1	1.2	-2	-8.2	-10	4	5	-1.1	-0.2
CC1=C(C(=O)OC(C)C)C(c2ccsc2)NC(=O)N1C (configuration not stated)	-1.8	/	-2.5	5	13	-6	0.2	?
CCOc1cccc(-n2nnnc2-c2ccc(OC)cc2)c1	0.0	12	0.3	7	-20	-2	0.2	-3.0
COC(=O)c1ccc(N=NN2CCCCC2)cc1	7.0	-8	-3.0	4	-16	-33	0.6	-3.1
COC(=O)c1ccc(OCC(=O)c2ccccc2OC)cc1	-0.6	0	5.3	-12	17	2	-0.9	-0.2
O=C(O)CN1C(=O)/C(=C\c2cccc(OCc3ccc(F)cc3)c2)SC1=S	15	-1	-1.6	3	-2	-3	1.2	4.3
O=C(C(NS(=O)(=O)c1cccc2nsnc12)c1ccccc1)N1CCN(c2ccccn2)CC1 (configuration not stated)	1.6	0	-2.7	-8	2	-9	0.3	-0.6
CCn1c(C)cc(/C=C2\NC(=O)N(Cc3ccccc3)C2=O)c1C	-5.3	3	-0.8	1	19	-1	0.6	2.5
CCOC(=O)Cc1ccc(NC(=O)c2cccc([N+](=O)[O-])c2)cc1	3.9	-3	4.8	5	-3	-46	-7.4	3.4
COc1ccc(C(=O)c2cnc3cc4c(cc3c2C)OCO4)cc1	0.8	1	-3.6	-5	39	37	1.5	1.4
COC(=O)C(NC(C)=O)(Nc1ccc(C)cn1)C(F)(F)F (configuration not stated)	0.1	-2	1.2	13	-11	6	-0.4	-1.3
CCOc1ccc(NC(=S)N(CCc2ccncc2)C(C)C)cc1	0.7	-2	3.9	4	-4	-5	0.3	9.8
CCN(CC)CC#CCC(OC)(c1ccccc1)c1ccccc1	3.3	10	-1.4	2	20	-19	0.6	6.6
CCOC(=O)[C@H]1[C@H]2COc3ccc(OC)cc3[C@H]2N2C(=O)CNC(=O)[C@@]12C	-4.3	-3	-19	2	/	/	1.8	/
CC1(C)CC2CC(C)(CN2S(=O)(=O)c2ccc(N)cc2)C1 (configuration not stated)	5.3	0	-1.5	4	17	-39	0.7	-1.4
COc1ccc(/C=C/C(=O)NC(=S)NNC(=O)c2c(-c3ccccc3)noc2C)cc1	/	21	-5.5	9	-7	3	-1.1	0.3
CCC1CCC(C(=O)NC(C(=O)NCCN2CCOCC2)C(C)C)CC1 (configuration not stated)	2.3	-5	7.6	6	28	-7	2.7	3.6
O=C(COC(=O)/C=C/c1cn(-c2ccccc2)nc1-c1cccnc1)Nc1ccc(Cl)cc1Cl	/	-8	0.9	-23	-20	-14	0.0	-1.3
CN1CCc2c(sc(/N=C/c3cccs3)c2C(N)=O)C1	/	-2	-8.8	5	0	22	0.4	?
C=CCn1c(SCC(=O)NCc2ccc3c(c2)OCO3)nnc1-c1cccnc1	-1.4	3	0.8	-2	-1	14	-0.2	-0.6
CC1(C)CC(=O)c2cnc3nc4ccccc4n3c2C1	1.5	0	1.4	-24	-9	-34	-0.2	3.4
CC1=C(C(N)=O)C(c2cccs2)n2nc(-c3cccc(C)c3)nc2N1 (configuration not stated)	-3.6	-5	-2.4	-11	0	-9	-0.5	-5.4
COc1ccc(CNC(=O)Cn2nc(C)n3cccc3c2=O)cc1	4.1	/	3.7	0	-3	-13	-0.1	2.1
O=C(NC1CCCc2ccccc21)c1cc(F)cc(F)c1 (configuration not stated)	1.6	-3	13	0	12	2	0.1	8.5
Nc1ncc(Br)cc1N=Cc1ccccc1	4.6	-3	4.2	-4	4	2	-3.3	-8.2
COC(=O)c1ccc(NC(=S)NCc2ccco2)cc1	1.4	-1	1.1	12	-14	-4	-0.6	-3.7
CCCn1c(N)c(C(=O)CSc2nc3ncc(Cl)cc3[nH]2)c(=O)[nH]c1=O	0.5	0	-0.1	6	/	/	0.8	/
Cn1c(SC/C=C/c2ccccc2)nnc1-c1cccs1	2.9	0	4.0	-1	4	-19	-0.5	3.9
CC(C)Nc1nc(NC(C)C)nc(OCCOC(=O)c2ccccc2)n1	5.7	0	4.5	1	8	-3	0.2	-1.6
N#CCCN(C(=O)CSc1n[nH]c(=O)[nH]c1=O)c1ccccc1	1.2	3	8.9	-4	/	/	1.1	/
Cc1ccccc1S(=O)(=O)Nc1ncc(C(F)(F)F)cc1Cl	5.4	/	5.1	5	-9	-2	-0.5	-0.8
CCOC(=O)/C=C1\CN(Cc2ccc(OC)cc2)S(=O)(=O)c2ccccc21	2.8	-1	0.7	0	-11	7	-0.1	1.9
COc1ccccc1C(=O)Nc1ccnn1C1CCN(C(=O)C(C)(C)C)CC1	4.6	0	7.1	0	-37	8	-1.6	1.3
O=C(CSc1nnc(CNc2ccccc2)o1)N1CCc2ccccc21	-2.3	3	-7.2	-12	4	17	-0.1	0.2
CNC(=O)COc1coc(CN2CCN(c3cccc(Cl)c3)CC2)cc1=O	0.8	-1	-4.9	3	-49	-1	-1.5	3.1
CCOc1ccc(N2CC(C(=O)OCC(=O)c3ccc(OC)cc3)CC2=O)cc1 (configuration not stated)	-0.4	/	0.6	-3	1	-6	-0.2	?
Cc1nc(Oc2ccccc2)c2ccsc2n1	1.0	-4	-1.3	-2	9	31	-0.1	1.5
Cc1cc(C)nc(NC(=O)Cc2ccc([N+](=O)[O-])cc2)c1	1.0	-7	10	-7	-4	-30	0.2	0.1
O=C(C[C@H]1C/C=C\C[C@H](Cc2ccc(F)cc2)C(=O)O[C@@H](c2ccccc2)CNC1=O)N[C@H](CO)Cc1ccccc1	2.1	-3	-6.3	1	/	/	1.0	/
CCOC(=O)C(C)Sc1ncnc2nc[nH]c12 (configuration not stated)	2.0	1	2.6	3	-19	-4	0.8	0.9
C(=N/Nc1nc(-c2ccccc2)cc(-c2ccccc2)n1)/c1cccnc1	/	25	-3.4	2	35	0	0.0	?
CCCCCCNC(=O)c1ncn[nH]1	2.5	-4	-2.0	9	1	2	0.4	-0.8
CC1(C)Cc2cccc(Oc3cc(NN4CCCCC4)c([N+](=O)[O-])cc3[N+](=O)[O-])c2O1	7.2	12	4.1	8	32	0	1.6	-3.4
CC(Sc1nc2scc(-c3ccccc3)c2c(=O)[nH]1)C(=O)NC(N)=O (configuration not stated)	-1.9	-1	7.7	-1	1	2	-0.3	5.4
Cc1ccc(NC(=O)COc2ccc(-c3nnco3)cc2)cc1S(=O)(=O)N1CCOCC1	6.1	-6	1.3	-1	-29	-2	-0.4	?
CC(C)CC(NC(=O)c1ccc(Cl)cc1)C(=O)OCC(=O)c1ccc2c(c1)NC(=O)CO2 (configuration not stated)	4.6	68	2.8	4	-10	0	15*	-4.7
COc1ccc(F)cc1C1=CC(=O)C[C@H](c2ccc3c(c2)OCO3)C1	3.5	0	9.1	20	/	/	0.2	/
CC/C(O)=C1\C(=O)CC(C)(C)CC1=Nc1ccccc1C	1.3	4	-6.9	2	1	5	-0.5	1.9
N=C1/C(=C\c2ccc(-c3cccc(Cl)c3)o2)C(=O)N=C2SC=C(c3ccccc3)N12	7.3	1	-5.3	57*	-7	0	-0.8	2.3
Cc1ccc(-c2c(C#N)c(N)n(-c3ccc(C)cc3)c(=O)c2C#N)cc1	-339	-7	-7.6	-13	5	1	-0.1	-2.6
CN(CC(=O)Nc1cccc(F)c1)C(=O)c1ccc(C2SCCS2)cc1	1.2	/	-14	7	-5	-37	0.0	5.9
O=c1[nH]c2c(s1)C(c1ccc(O)cc1)C1C3CCC(C3)C1S2 (configuration not stated)	4.5	6	4.8	0	-4	-6	-0.8	-2.4
Cc1ccc(-c2cc(C(=O)NCc3ccco3)c3ccccc3n2)o1	-90	4	8.2	-3	-7	-2	-0.4	-0.9
CC(C)=N/N=C1\NC(=O)C(C)S1 (configuration not stated)	1.9	5	-2.3	-2	-18	0	-1.3	3.6

Remaining list, next part:
SMILES	UCH37 DUB inh	Beta apoptosis	LANA-H2A inh	B2AR ag	T cruzi repl	Calb FLC	A1 inh	RanGTP-Impb inh
COc1cc(C(C)=O)ccc1OCC(=O)OCCCOC(=O)COc1ccc(C(C)=O)cc1OC	1.7	-8	3.5	19	-2	-8	-0.5	0.7
CC(C)CN1CCC(C(=O)N2CCN(c3ccccc3F)CC2)CC1	0.7	0	1.4	3	11	-19	-0.2	0.9
Cc1onc(-c2c(F)cccc2Cl)c1C(=O)N1CCN(S(C)(=O)=O)CC1	-0.9	1	7.9	4	4	-6	-0.1	-0.6
O=C(O)C1CCCN1S(=O)(=O)c1ccc(F)cc1 (configuration not stated)	1.2	/	14	12	-1	-5	-0.6	1.6
CCOn1c(-n2nc(C)cc2C)nc2ccccc2c1=O	1.5	-5	4.5	-1	-33	-2	-0.1	-3.9
COc1cc(NS(=O)(=O)c2ccc(N)cc2)ncn1	/	-3	2.4	/	-16	/	0.0	0.1
Cc1cc(NC(=O)C(=O)c2c(C)[nH]c3ccccc23)no1	7.0	-3	-5.1	-7	-9	-3	1.4	-2.0
COc1ccc(NC(=O)CC2(CC(=O)O)CCCC2)cc1	-0.4	/	4.8	1	1	-4	0.8	0.4
Cc1cccc(CSCCNC(=O)CN(c2cc(C)cc(C)c2)S(C)(=O)=O)c1	-1.1	-6	-3.1	-6	-12	8	1.5	-4.4
O=C(CSc1n[nH]c(-c2ccc(Br)cc2)n1)NC1CCCC1	6.0	2	-5.4	0	/	/	0.3	/
COCCCNS(=O)(=O)c1ccc2[nH]c(=O)[nH]c2c1	2.0	-8	1.2	4	3	0	0.0	?
O=C(CSc1nccc2ccccc12)N1CCN(Cc2ccc3c(c2)OCO3)CC1	-9.0	-4	-0.5	-4	18	-46	-0.5	-28
COc1cccc(NS(=O)(=O)c2ccc3[nH]cc(C(=O)NC4CC4)c(=O)c3c2)c1	2.0	/	/	2	-1	0	/	0.1
CCOC(=O)Cc1csc(N)n1	1.2	-8	-1.3	1	3	-15	1.0	?
